BLM helicase inh – Bloom syndrome helicase (human) inhibition. P54132. recombinant BLM DNA unwinding, fluorescence dequenching. Potency, µM (titrated, usually from 56.1 µM), for inactives: top-dose activity change, negative = inhibition, actives largely listed as inhibitors. 0.2% of 350,000 active. AID 2528;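 note: plate controls were vehicle for no effect and no enzyme for full effect; nearly all actives have a fitted effect of over 35% in size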
Target sequence (P54132 whole entry, looked up): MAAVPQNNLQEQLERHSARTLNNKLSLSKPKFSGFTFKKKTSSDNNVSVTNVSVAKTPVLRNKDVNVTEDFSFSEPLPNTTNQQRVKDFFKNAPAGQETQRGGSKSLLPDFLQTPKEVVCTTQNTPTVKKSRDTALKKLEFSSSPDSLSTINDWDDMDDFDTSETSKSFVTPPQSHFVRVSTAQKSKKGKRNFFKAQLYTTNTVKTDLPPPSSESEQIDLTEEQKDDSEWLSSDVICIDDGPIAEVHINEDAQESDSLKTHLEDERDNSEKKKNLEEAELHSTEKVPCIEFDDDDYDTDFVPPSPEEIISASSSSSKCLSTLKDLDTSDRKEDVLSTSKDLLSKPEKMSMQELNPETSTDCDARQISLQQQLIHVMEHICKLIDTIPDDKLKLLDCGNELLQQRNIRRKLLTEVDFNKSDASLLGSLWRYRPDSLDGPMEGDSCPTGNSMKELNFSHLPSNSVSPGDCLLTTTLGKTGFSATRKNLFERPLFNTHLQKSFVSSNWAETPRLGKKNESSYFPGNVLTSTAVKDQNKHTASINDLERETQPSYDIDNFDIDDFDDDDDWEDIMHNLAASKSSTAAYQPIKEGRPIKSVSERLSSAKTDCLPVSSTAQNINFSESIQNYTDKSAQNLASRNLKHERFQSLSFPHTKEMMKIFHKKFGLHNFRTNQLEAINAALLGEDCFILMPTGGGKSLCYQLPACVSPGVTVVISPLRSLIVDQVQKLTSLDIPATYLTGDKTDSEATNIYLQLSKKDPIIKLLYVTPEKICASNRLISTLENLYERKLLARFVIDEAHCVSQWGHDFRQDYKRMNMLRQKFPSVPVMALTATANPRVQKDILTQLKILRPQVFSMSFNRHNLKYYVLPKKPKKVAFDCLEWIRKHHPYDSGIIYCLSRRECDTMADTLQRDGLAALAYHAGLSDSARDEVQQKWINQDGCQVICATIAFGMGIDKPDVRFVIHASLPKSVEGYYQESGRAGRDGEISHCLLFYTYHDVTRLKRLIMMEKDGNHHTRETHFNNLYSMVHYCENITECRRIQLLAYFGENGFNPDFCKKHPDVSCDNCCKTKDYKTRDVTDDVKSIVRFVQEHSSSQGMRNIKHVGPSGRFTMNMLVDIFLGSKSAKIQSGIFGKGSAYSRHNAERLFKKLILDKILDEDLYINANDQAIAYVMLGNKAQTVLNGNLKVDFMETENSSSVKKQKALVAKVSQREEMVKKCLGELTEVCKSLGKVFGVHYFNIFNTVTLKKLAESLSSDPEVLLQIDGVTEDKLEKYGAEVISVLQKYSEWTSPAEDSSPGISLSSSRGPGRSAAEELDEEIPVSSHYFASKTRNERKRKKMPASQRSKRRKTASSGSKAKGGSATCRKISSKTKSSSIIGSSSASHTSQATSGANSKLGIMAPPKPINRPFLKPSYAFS
GLS inh – blocks human kidney-isoform glutaminase activity. AID 624170. 0.21% of 410,000 active. GLS enzymatic activity, qHTS titration. O94925. Potency, µM (top dose mostly 45.5 µM), without a hit: at the top dose activity change, negative = inhibition, most hits filed as inhibitors; note: % is set by controls: 0 for no effect and ±100 for the full control effect
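Two-point fluorescence kinetic (t0, 30 min RT) for hKGA; glutamate detected via glutamate oxidase–HRP–Amplex Red. Substrate: 1 mM L-glutamine solution; buffer 45 mM KH2PO4, pH 8.2.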
G9a block – inhibitors of human histone lysine methyltransferase G9a; Q96KQ7; 8.8% of 350,000 active; Potency, µM (titrated, usually from 102 µM), for inactives: top-dose activity, negative = inhibition, hits mostly inhibitors; G9a H3K9 monomethylation, AlphaScreen, 2 h; AID 504332; note: % is set by controls: 0 for no effect and ±100 for the full control effect; nearly all actives have a fitted effect of over 75% in size
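Readings reflect AlphaScreen signal from monomethyl-H3K9 antibody detection. HMT at 20 nM; substrate b-H3K9 500 nM; cofactor SAM 20 uM; 2 h RT reaction; compounds tested as titrations in qHTS with 15 min preincubation.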
POLI inh – DNA polymerase iota (human) inhibition; Q9UNA4; Pol iota fluorescent replication assay, 10 min; Potency, µM (doses to about 115 µM), inactives show top-dose activity, negative = inhibition, actives largely listed as inhibitors; 1% of 390,000 active
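Pol iota at 10 nM preincubated 15 min with compounds at room temperature; reaction started with fluorescent substrate, 50 nM final. Fluorescence read kinetically at 0 and 10 min; buffer-only wells as negative control.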
PGK inhibitor – blocks T. brucei phosphoglycerate kinase; P07378; PGK/GAPDH coupled, Kinase-Glo luminescence, 60 min; Potency, µM (doses to about 57.5 µM), inactives show top-dose activity change, negative = inhibition, usual class: inhibitors; 0.043% of 380,000 active; note: % is set by controls: 0 for no effect and ±100 for the full control effect; nearly all actives have a fitted effect of over 60% in size
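Recombinant glycosomal PGK reaction used 1,3-bisphosphoglycerate generated in-well by GAPDH (100nM final) in 100mM TEA pH 7.6, 5mM MgCl2, 0.01% Tween-20. After 60 minutes at room temperature, ATP was read by Kinase-Glo Plus luminescence end-point.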
Pin1 inhibitor – inhibitors of human Pin1; Q13526; Pin1 FP peptide displacement, HiFluor488, 10 min; Potency, µM (titrated, usually from 115 µM), for inactives: at the highest dose activity, negative = inhibition, most hits filed as inhibitors; 0.009% of 390,000 active; active = well fitted inhibition curve with a large enough effect in the polarisation, with a control signal flat, not every such curve was filed as active; inconclusive = small, poorly fitted or top-dose-only effect, or effect the other way, or a change in a side signal; inactive = no such curve, though single readings can be large or run the other way; the % refers to the polarisation; note: % is set by controls: 0 for no effect and ±100 for the full control effect
Active calls of the source: *; i = inactive; u = inconclusive; x = not tested or not shown; & = joins results of further samples; [ ] = dose if it differs, or a comment. Unless noted, calls come from the whole dose curve; as a rule, active = well fitted curve in the direction sought with a large enough effect; inconclusive = small, poorly fitted or top-dose-only effect, or another doubt; inactive = no such curve, though single readings can be large; an effect the other way counts as inactive or inconclusive. Potency is the fitted concentration of half-maximal effect. These rows are one share of the data. The share of hits here may be higher or lower than overall.

Every second line gives: BLM helicase inh | GLS inh | G9a block | POLI inh | PGK inhibitor | Pin1 inhibitor
Cc1cccc(/C=C2/Sc3ccc(C(=O)N4CCOCC4)cc3NC2=O)c1
    -1% | 0% | x | -11% | -3% | -9%
COc1ccc(C(CNCC(=O)Nc2ccccc2F)N(C)C)cc1 (stereo unspecified)
    1% | -1% | u | -26% | -4% | -12%
COc1ccc(OC)c(CNc2ncc(-c3ccc(Cl)cc3)n2C)c1
    1% | 8% | 4µM* | 14% | i | 3%
COc1ccc2c(c1)CCC1=C2NC(=S)NC1c1ccc(N(C)C)cc1 (stereo unspecified)
    -11% | -2% | x | 7% | -9% | 67%[activator]
CCCS(=O)(=O)N1CCN(C2Cc3ccccc3C2)CC1
    0% | 3% | x | 15% | 5% | 3%
Fc1ccccc1N1CCN(CC2CC3C=CC2C3)CC1 (stereo unspecified)
    -3% | 14% | 11µM* | 16% | -8%[11.5 µM] | -14%
O=C(CN1CCCCCC1)NN(Cc1ccccc1)c1ccccc1
    -3% | 7% | -132%[12.7 µM] | 69%[activator] | i | -13%
CCN1CCN(CC(=O)N2c3ccccc3CC2C)CC1 (stereo unspecified)
    1% | 3% | u | -1% | -20% | -12%
COCCCNCC#CCOc1ccc(OC)cc1
    -3% | u | 18µM* | 46%[activator] | -1% | -8%
Cc1ccc(Nc2c(-c3ccsc3)nc3c(C)cccn23)cc1
    -10% | 2% | u | -1%&3% | i | -4%&4%
NS(=O)(=O)c1ccc(NC(=O)CN2CCN(Cc3ccccc3)CC2)cc1
    1% | 5% | u | 7% | i | -6%
O=C(Nc1nnc(C2=COCCO2)o1)c1cccc(F)c1
    1% | 8% | 8% | u | -4% | 2%
CC(C)(C)S(=O)(=O)N1C[C@H]2CC/C=C\C/C(c3ccccc3)=C\2[C@@H]1CCO
    x | 0% | x | 8% | 0% | -5%
CN(C)CCC(Oc1ccccc1OCc1ccccc1)c1ccccc1 (stereo unspecified)
    x | 0% | x | 20% | -7% | -5%
Clc1cccc(OCCN2CCOCC2)c1
    -2% | 1% | 25µM* | 13% | 5% | 1%
Cc1ccc(NC(=O)c2ccc(N/N=C/c3cccc(O)c3)c([N+](=O)[O-])c2)cc1
    -2% | 6% | x | 16% | -7% | 15%
CCOc1ccc2nc(N3CCCC(C(=O)N4CCN(CC)CC4)C3)sc2c1 (stereo unspecified)
    -2% | -1% | 7.9µM* | 6% | -1% | 2%
CC(C)(C)C(=O)Nc1nnc(-c2ccncc2)o1
    3% | 5% | 79µM* | 7% | 0% | 0%
CC/C(C)=N/Nc1ccc(S(=O)(=O)N2CCCC2)cc1[N+](=O)[O-]
    1% | 1% | 18µM* | 159%[activator] | 5% | -1%
O=C(CNCC1CCCO1)N1CCCCCC1 (stereo unspecified)
    -5% | -5% | 25µM* | 98%[activator] | -10% | 0%
O=C(c1ccco1)N1CCC(N2CCN(c3ccccc3)CC2)CC1
    -1% | 44%[activator] | x | -16% | -7% | -5%
COc1ccc(OCCN(C)CC(=O)Nc2c(C)cccc2C)cc1
    -1% | -5% | -24% | 126%[activator] | -5% | -1%
OC(COC(c1ccc(F)cc1)c1ccc(F)cc1)CN1CCCC1 (stereo unspecified)
    -3% | 9% | 56%[activator][0.501 µM] | -26% | x | -11%
COc1ccc(CNc2ncc(-c3ccc(F)cc3)n2C)cc1OC
    -1% | 2% | x | -12% | -8% | -1%
O=C(CN1CCN(Cc2ccccc2)CC1)NC(c1ccccc1)c1ccccc1
    3% | 5% | -128%[59 µM] | u | -6% | -3%
COCCCNC(=S)N1CCN(C)CC1
    -1% | 13% | -39%[12.7 µM] | 7% | i | -2%
O=C(Nc1ncn[nH]1)c1ccc([N+](=O)[O-])cc1[N+](=O)[O-]
    1% | 5% | u | -8% | 1% | 6%
COc1cc(/C=C/C(=O)O)cc(S(=O)(=O)NNC(=O)c2cc(C)oc2C)c1OC
    x | u | x | 22µM* | -19% | -4%
CC(CCc1ccc(O)cc1)N(C)CCc1ccccc1 (stereo unspecified)
    3% | 10% | u | 8% | -5% | 2%
Cc1cc(C)cc(NC(=O)C(NCCN2CCOCC2)c2ccccc2)c1 (stereo unspecified)
    1% | 2% | 2.8µM* | 60%[activator] | -9% | -12%

Every second line gives: BLM helicase inh | GLS inh | G9a block | POLI inh | PGK inhibitor | Pin1 inhibitor
CCN(Cc1ccccc1)C(=O)C1CCN(Cc2ccc(OC)c(OC)c2OC)CC1
    -6% | u | u | 5% | -7% | -9%
COc1ccccc1-n1cnc2cc(NCc3ccccn3)ccc21
    -2% | 8% | -21%[12.7 µM] | 7% | -9% | -3%
CC(=O)Nc1ccc(NC(=O)C/C(C)=N/NC(N)=S)cc1
    -3% | 2% | 1.4µM* | -2% | 0% | -4%
COc1ccc(S(=O)(=O)N2CCN(C3CCCCCCC3)CC2)cc1
    -3%&-8% | 2%&4% | 8.9µM* | 8%&26% | 0% | -10%&-1%
COc1ccc(CCN(C)Cc2ccc(OCc3ccccc3)c(OC)c2)cc1OC
    u | 6% | x | -3% | 2% | -3%
COc1ccc2c(c1)C(c1ccc(C)o1)=NNC(c1ccccc1)=N2
    2% | 9% | 40µM* | 32%[activator] | 0% | -3%
CCOc1ccc(OCCN(C)Cc2ccccc2)cc1
    1% | 11% | 4µM* | 13% | -4% | -4%
CC(=O)Nc1ccc(S(=O)(=O)N2CCN(Cc3cccc([N+](=O)[O-])c3)CC2)cc1
    -3% | 1% | 32µM* | 13% | -1% | -2%
FC(F)(F)c1ccc2c(c1)N1CCCC1CN2 (stereo unspecified)
    -6% | -1% | 3.5µM* | 75%[activator] | -8% | 24%
O=C1N=c2ccccc2=C1c1sc(=S)n(NC(=O)c2cccc(O)c2)c1O
    -6% | 22% | 32µM* | u | -2% | -14%
CN1CCN(C(=S)c2cn(Cc3ccc(F)cc3)c3ccccc23)CC1
    -5% | 6% | 45µM* | 25% | -7% | 1%
CC(C)c1ccc(CNc2ncccn2)cc1
    -13% | 0% | x | 164%[activator] | i | 2%
Cc1cc(OCCCn2ccnc2)ccc1C(C)C
    -1% | 3% | 10µM* | 96%[activator] | 1% | -17%
CCc1cccc(C)c1Nc1c(-c2ccccc2)nc2sccn12
    -13% | 10% | u | -3% | 7% | u
Cc1ccc(S(=O)(=O)N2CCCCC2)cc1NC(=O)CNCc1ccco1
    -3% | 0% | x | 82%[activator] | 0% | -5%
COc1ccc(COCC(O)CN2CCN(S(=O)(=O)c3ccc(C(C)C)cc3)CC2)cc1 (stereo unspecified)
    x | 5% | u | 11% | -2% | -12%
COCCCNC(=S)N1CCN(Cc2ccc3c(c2)OCO3)CC1
    -1% | 6% | 14µM* | 20% | -2% | 0%
Clc1ccc(OCCN2CCOCC2)cc1Cl
    -2% | 9% | 13µM* | 35%[activator] | -7% | 3%
COc1ccc(-n2ccnc2CN2CCCC(CO)(Cc3cccc(OC)c3)C2)cc1 (stereo unspecified)
    -1% | 17% | x | 30%[activator] | -6% | -2%
CCN1CCN(CC(=O)Nc2ccc(C(C)=O)cc2)CC1
    4% | -1% | 2%[2.33 µM] | 3% | -7% | -13%
Cc1ccccc1CN1CCN(C(=O)c2ccco2)CC1
    -1% | 12% | 11µM* | 112%[activator] | -6% | 0%
O=C(CSc1nccn1Cc1ccc(Cl)cc1)Nc1ccc2c(c1)OCO2
    -6% | -7% | 18µM* | 12% | -10% | 2%
COc1cc(CN2CCCC(C(=O)N3CCc4ccccc4C3)C2)cc(OC)c1OC (stereo unspecified)
    -7% | 5% | 8.9µM* | 32%[activator] | -8% | -18%
Cc1cccc(-n2cc(-c3ccccc3)[nH]c2=S)c1
    -6% | 1% | 25µM* | 44%[activator] | -2% | -1%
CCOc1cc(CN2CCN(c3cccc(C(F)(F)F)c3)CC2)ccc1O
    -5% | 23% | u | 0% | 2% | -9%
Cc1ccc(-c2cnc(NCc3ccc(C(F)(F)F)cc3)n2C)cc1
    -8% | 3% | 3.5µM* | u | -1% | 4%
c1ccc(-c2nnc(-c3ccccn3)c(-c3ccccn3)n2)nc1
    1% | -7% | u | 132%[activator] | -9% | 2%
CS(=O)(=O)c1ccc2nc(NC(=O)CN3CCCCCC3)sc2c1
    1% | 37%[activator] | 18µM* | 7% | -5% | -2%
COc1cccc(C(=O)N2CCN(Cc3ccccn3)CC2)c1OC
    3% | 3% | 7%[2.33 µM] | 19% | 6% | 0%
O=C(Nc1ncn[nH]1)c1cccc(S(=O)(=O)N2CCOCC2)c1
    1% | 1% | 16µM* | 74%[activator] | i | -10%

An excerpt from above with just BLM helicase inh:
Structure | BLM helicase inh
Cc1cccc(-n2cc(-c3ccccc3)[nH]c2=S)c1 | -6%
CCOc1cc(CN2CCN(c3cccc(C(F)(F)F)c3)CC2)ccc1O | -5%

The main list resumes, starting 2 compounds before the break.
Every second line gives: BLM helicase inh | GLS inh | G9a block | POLI inh | PGK inhibitor | Pin1 inhibitor
COc1cccc(C(=O)N2CCN(Cc3ccccn3)CC2)c1OC
    3% | 3% | 7%[2.33 µM] | 19% | 6% | 0%
O=C(Nc1ncn[nH]1)c1cccc(S(=O)(=O)N2CCOCC2)c1
    1% | 1% | 16µM* | 74%[activator] | i | -10%
O=C1CN(C(=O)CNCc2ccccc2Cl)c2ccccc2N1
    2% | -1% | 22µM* | 45%[activator] | -7% | -12%
O=C(CSc1nnc(-c2ccccn2)o1)Nc1ccccc1Cl
    0% | -18% | 7% | 46%[activator] | -5% | -1%
COc1ccccc1N1CCN(CC(=O)Nc2c(C)n(C)n(-c3ccccc3)c2=O)CC1
    -6% | 0% | 1.4µM* | 48%[activator] | 0% | -4%
COc1cc(CN2CCN(S(=O)(=O)c3ccc(NC(C)=O)cc3)CC2)cc(OC)c1O
    -1% | 13µM* | 8.9µM* | 30%[activator] | -3% | 1%
COc1ccc(NC(=O)CN2CCCCC2)cc1
    -7% | -7% | u | -4% | -1% | 3%
CCNC(=S)Nc1cc(-c2ccc(Cl)cc2)[nH]n1
    -4% | 1% | 1.6µM* | 53%[activator] | 4% | 0%
COc1ccc(N=C/C=C2\C=C(c3ccccc3)OC(C)(C)O2)cc1
    -1% | -3% | 13µM* | 7% | -8% | 34%[activator]
CCOC(=O)N1CCN(C(=O)CNCc2cccs2)CC1
    1% | 2% | 32µM* | u | -3% | -3%
COc1ccc2cc([C@H](C)C(=O)N(C)Cc3ccccc3N3CCCC3)ccc2c1
    -6% | -7% | 45µM* | -2% | -5% | u
COc1ccc(NC(=O)CN(C)C(=O)/C=C/c2cn(Cc3ccccc3)nc2-c2cccnc2)cc1
    x | 17% | 7.9µM* | 19% | -7% | u
CCOc1ccc(CN2CCN(Cc3c[nH]c4ccccc34)CC2)cc1
    -1% | -3% | 25%[2.33 µM] | 153%[activator] | i | -11%
COc1ccc(-c2cn(-c3ccc(C)c(C)c3)c(=S)[nH]2)cc1OC
    -7% | u | 8.9µM* | 96%[activator] | 4% | 1%
O=S(=O)(c1ccccc1F)N1CCN(Cc2nc3ccccc3[nH]2)CC1
    6% | -14% | 3.2µM* | 23% | x | -5%
